Sa helicase inh: S. aureus DNA helicase inhibition | purified S. aureus helicase, fluorescence unwinding assay; about half of the hits fall short of the stated cut | AID 485395 | inhibition, %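 (tested at about 80 µM)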 | 0.05% of 120,000 active;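 active = both duplicates at 50% or more, or one of them with a favoured structure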;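 note: 0% = mean of negative control wells and 100% = mean of positive control wells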
MgrA DNA FP: S. aureus MgrA-DNA binding modulation | fluorescence polarization | AID 602314 | 0.13% of 84,000 active | inhibition, %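 (about 10 µg/mL by stock and volumes)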;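 active = above 50% in either of two replicates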;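 note: 0% = protein plus DNA without compound and 100% = DNA alone without protein; higher means less MgrA bound to DNA so lower polarization; one replicate is shown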
* marks the source's active call; other numbers are inactive results; / = no result given; & = joins results of further samples. These rows are one share of the data; count on the stated rates, not on these rows.

Each structure is followed by: Sa helicase inh | MgrA DNA FP
[1] CSc1cccc(NC(=O)CCc2nc(C3=CCN(C)CC3)no2)c1
→ -16 | /
[2] CN(C)c1ccc(C=C2C(=O)NC(=S)NC2=O)cc1
→ 16 | /
[3] Cn1c(=O)c2c(ncn2CC(=O)Nc2ccc(C#N)c(Cl)c2)n(C)c1=O
→ 15 | /
[4] O=C(Nc1cccc(C(F)(F)F)c1)OC1CN2CCC1CC2 (stereo not drawn)
→ / | -1.5
[5] S=C(Nc1ccccc1)N1CCCCC1c1cccnc1 (stereo not drawn)
→ / | 3.5
[6] NC(CO)Cc1ccccc1 (stereo not drawn)
→ 8 | /
[7] O=C1NC(=O)C(=Cc2ccc(OCCOc3ccc([N+](=O)[O-])cc3)cc2)C(=O)N1
→ / | 15
[8] Cc1[nH]c(=O)n(C(C)(C)C)c(=O)c1Cl
→ -7 | /
[9] CCNCC(O)c1cccc(O)c1 (stereo not drawn)
→ -17 | -4.9&0.9
[10] CCN(CC(=O)c1ccc(C#N)cc1)C1CCCCC1
→ -5 | /
[11] COC1=CC(=O)O[C@@H](/C=C/c2ccccc2)C1
→ / | -0.4
[12] COc1ccc(C2(CN)CCOCC2)cc1
→ 4 | -1.1
[13] Cc1ccccc1CS(=O)(=O)Cc1ccc(C(=O)N2CCC3(CC2)OCCO3)o1
→ 17 | 2.0
[14] CNC(=O)Oc1ccc(-c2nc(CSc3ccc(Cl)cc3)cs2)cc1
→ / | -1.2
[15] O=P1(Nc2ccc(Cl)cc2)CC=CC1
→ 19 | /
[16] O=C1NC(=S)NC(=O)C1=Cc1ccc(O)c(O)c1
→ / | 39
[17] CN1CCN(P2(=S)C3=C(CCC3)C3=C(CCC3)N2c2ccccc2)CC1 (stereo not drawn)
→ 8 | /
[18] Cc1ccc(S(=O)(=O)N2CN3CCN(C3)C2)cc1
→ / | -0.8
[19] O=C1/C(=C\c2ccc3c(c2)OCO3)N2CCC1CC2
→ / | -11
[20] COC(=O)c1cncn1C(C)c1ccccc1 (stereo not drawn)
→ -23 | 1.3
[21] CC(C)[C@]12O[C@H]1[C@@H]1O[C@]13[C@]1(O[C@H]1C[C@H]1C4=C(CC[C@@]13C)C(=O)OC4)[C@@H]2O
→ / | 2.4
[22] O=[N+]([O-])c1ccc(N2CCCCC2)c2nonc12
→ / | 16
[23] CC(N)c1cccnc1 (stereo not drawn)
→ 15 | /
[24] CCOC(C(=O)O)(c1ccccc1)c1ccccc1
→ -15 | /
[25] Clc1ccc(CN2CCN(c3cccc4[nH]ccc34)CC2)cc1Cl
→ / | -0.6
[26] COc1ccc(C=C2C(=O)NC(=O)NC2=O)cc1OC
→ / | 5.0
[27] O=C1NC(=O)C(C2(O)C(=O)c3ccccc3C2=O)C(=O)N1
→ -2 | -1.8
[28] Cn1cccc1CNCCc1ccccc1
→ 19 | -2.3
[29] CCN(CC)CCc1c(C)c2ccc(O)cc2oc1=O
→ 18 | 2.1
[30] O=c1c2ccccc2ncn1CN1CC=C(c2ccccc2)CC1
→ 4 | /

16 structures out of the list, sorted by SMILES length, descending.
Each structure is followed by: Sa helicase inh | MgrA DNA FP
[21] CC(C)[C@]12O[C@H]1[C@@H]1O[C@]13[C@]1(O[C@H]1C[C@H]1C4=C(CC[C@@]13C)C(=O)OC4)[C@@H]2O
→ / | 2.4
[7] O=C1NC(=O)C(=Cc2ccc(OCCOc3ccc([N+](=O)[O-])cc3)cc2)C(=O)N1
→ / | 15
[17] CN1CCN(P2(=S)C3=C(CCC3)C3=C(CCC3)N2c2ccccc2)CC1 (stereo not drawn)
→ 8 | /
[14] CNC(=O)Oc1ccc(-c2nc(CSc3ccc(Cl)cc3)cs2)cc1
→ / | -1.2
[4] O=C(Nc1cccc(C(F)(F)F)c1)OC1CN2CCC1CC2 (stereo not drawn)
→ / | -1.5
[30] O=c1c2ccccc2ncn1CN1CC=C(c2ccccc2)CC1
→ 4 | /
[11] COC1=CC(=O)O[C@@H](/C=C/c2ccccc2)C1
→ / | -0.4
[26] COc1ccc(C=C2C(=O)NC(=O)NC2=O)cc1OC
→ / | 5.0
[10] CCN(CC(=O)c1ccc(C#N)cc1)C1CCCCC1
→ -5 | /
[29] CCN(CC)CCc1c(C)c2ccc(O)cc2oc1=O
→ 18 | 2.1
[5] S=C(Nc1ccccc1)N1CCCCC1c1cccnc1 (stereo not drawn)
→ / | 3.5
[15] O=P1(Nc2ccc(Cl)cc2)CC=CC1
→ 19 | /
[28] Cn1cccc1CNCCc1ccccc1
→ 19 | -2.3
[9] CCNCC(O)c1cccc(O)c1 (stereo not drawn)
→ -17 | -4.9&0.9
[6] NC(CO)Cc1ccccc1 (stereo not drawn)
→ 8 | /
[23] CC(N)c1cccnc1 (stereo not drawn)
→ 15 | /

Remaining list, next part.
Each structure is followed by: Sa helicase inh | MgrA DNA FP
[31] COc1ccc2c(c1)O/C(=C\c1cccc(OC(=O)N(C)C)c1)C2=O
→ 9 | /
[32] N#Cc1c(Cl)nc(N2CCOCC2)c(Cl)c1Cl
→ -35 | /
[33] C=CCC1(CC=C)C(=O)N(C)C(=O)N(C)C1=O
→ -21 | /
[34] Nc1c(Oc2ccccc2)cc(O)c2c1C(=O)c1ccccc1C2=O
→ / | -0.9
[35] CC12CN3CC(C)(C1O)C(O)C(C)(C3)C2O (stereo not drawn)
→ -16 | /
[36] OCCN1CCN(Cc2ccc(F)cc2)CC1
→ / | 1.8
[37] C=C1[C@@H](C)[C@H]2[C@H](Cc3ccccc3)NC(=O)[C@]23[C@H](OC(C)=O)/C=C/[C@](C)(O)C(=O)[C@@H](C)C/C=C/[C@H]3[C@@H]1O
→ / | 4.1
[38] CCNCC(O)c1cccc(OC(=O)c2ccccc2C)c1 (stereo not drawn)
→ 9 | -2.1
[39] Nc1cc(Cl)ccc1Cl
→ 4 | /
[40] CCC12CCCN3CCC4(c5ccc(OC)c(O)c5N(C(C)=O)C4CC1)C32 (stereo not drawn)
→ 15 | -0.8
[41] N=c1c[n+](CC23CC4CC(CC(C4)C2)C3)[n-]o1
→ 5 | -0.3
[42] Cc1cc(C#N)c(C)n1-c1ccc(Cl)cc1C(=O)c1ccccc1Cl
→ -17 | /

Whole records from above. Order of values: Sa helicase inh, MgrA DNA FP
C=CCC1(CC=C)C(=O)N(C)C(=O)N(C)C1=O in the list: -21, /
CC12CN3CC(C)(C1O)C(O)C(C)(C3)C2O (stereo not drawn) in the list: -16, /
